High-throughput results deposited in PubChem by National Center for Advancing Translational Sciences (NCATS).
NS1 function inh – influenza NS1 inhibition; AID 2326; S. cerevisiae slowed by influenza A NS1, growth recovery by OD600; Potency, µM (doses to about 46.1 µM), inactives show at the highest dose activity, positive = more growth; 270,000 compounds, 0.4% hits; active means well fitted rising curve with a large enough effect; inconclusive means small, poorly fitted or top-dose-only effect; inactive means no such curve, though single readings can be large or run the other way; also: nearly all actives have a fitted effect of over 50% in size
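Growth recovery, yeast-based: influenza A NS1 expressed in S. cerevisiae causes slow growth, and suppressors are detected by OD600. The parent strain without NS1 is used as positive control.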
RE007 growth inh – less growth of the S. pombe RE007 Vpr strain; S. pombe RE007 Vpr strain, BacTiter-Glo ATP luminescence, 24 h; control for the full effect not named in the record; 360,000 compounds, 0.21% hits; Potency, µM (top dose mostly 92.2 µM), for inactives: at the top dose activity change, negative = less growth; AID 651644; active = well fitted falling curve with a large enough effect; inconclusive = small, poorly fitted or top-dose-only effect; inactive = no such curve, though single readings can be large or run the other way;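 also: % is scaled to controls: 0 for no effect and ±100 for the full control effect; nearly all actives have a fitted effect of over 50% in size; the assay follows cell death caused by Vpr and the record does not say whether a fall means rescue or toxicity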
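Fission yeast strain RE007, carrying one chromosomally integrated HIV-1 vpr copy, was seeded at OD 0.01 in PMG+AL medium with 23 nL pinned compound. After 24 h at 30 °C and 99% humidity, viability was read by BacTiter-Glo luminescence.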
Cruzain Triton – blocks cruzain activity in presence of Triton detergent; AID 1478; 200,000 compounds, 0.43% hits; purified cruzain, Z-FR-AMC fluorescence, 0.01% Triton; Potency, µM, for the others: max response, negative = inhibition, actives largely listed as inhibitors;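 also: plate controls were neutral wells for no effect and buffer without enzyme for full effect; nearly all actives have a fitted effect of over 40% in size; top concentration of the series not given in the record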
Target sequence (P25779 123-467 limits assumed): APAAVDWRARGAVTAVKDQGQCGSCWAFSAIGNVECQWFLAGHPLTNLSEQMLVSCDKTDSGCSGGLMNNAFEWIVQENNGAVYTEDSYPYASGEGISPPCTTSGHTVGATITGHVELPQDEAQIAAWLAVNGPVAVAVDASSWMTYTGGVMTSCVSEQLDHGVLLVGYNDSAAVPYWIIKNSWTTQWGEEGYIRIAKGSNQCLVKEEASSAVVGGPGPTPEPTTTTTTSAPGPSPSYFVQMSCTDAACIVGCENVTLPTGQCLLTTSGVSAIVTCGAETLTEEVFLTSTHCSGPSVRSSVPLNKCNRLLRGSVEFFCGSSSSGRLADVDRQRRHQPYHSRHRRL
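Z-FR-AMC hydrolysis (2 uM substrate) by cruzain (1.5 nM) monitored kinetically at ex 360/em 450 nm after 15 min room-temperature compound exposure; 0.01% Triton X-100, pH 5.5, 5 mM DTT.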
Cruzain inh noDet – blocks cruzain activity in detergent-free assay | P25779 | purified cruzain, Z-FR-AMC fluorescence, no detergent | Potency, µM, for the others: max response, negative = inhibition, hits mostly inhibitors | 200,000 compounds, 2.3% hits | AID 1476;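 also: plate controls were enzyme without inhibitor for no effect and buffer without enzyme for full effect; nearly all actives have a fitted effect of over 40% in size; top concentration of the series not given in the record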
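Detergent-free condition (0.00005% Triton X-100) in acetate buffer pH 5.5 with DTT. 1.5 nM enzyme and compound were pre-mixed 15 min, then 2 uM Z-FR-AMC substrate added; reaction progress from fluorescence change between first and third reads (60 s).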
Lassa entry inh – blocks Lassa virus binding to or entry into cells. Lassa virus pseudotype entry inhibition, cell reporter; control for the full effect not named in the record. 300,000 compounds, 1.2% hits. Potency, µM (series often up to 37.9 µM), inactives show at the highest dose activity change, negative = inhibition, actives largely listed as inhibitors; active means well fitted inhibition curve with a large enough effect; inconclusive means small, poorly fitted or top-dose-only effect, or effect the other way; inactive means flat fitted curve, though single readings scatter; tested in HEK293 cells; also: % is scaled to controls: 0 for no effect and ±100 for the full control effect; nearly all actives have a fitted effect of over 50% in size; luciferase read-out
SARS PLpro yeast – inhibitors of SARS-CoV papain-like protease in yeast; S. cerevisiae expressing SARS-CoV PLpro, growth rescue; control for the full effect not named in the record; Potency, µM (series often up to 32.9 µM), for the others: at the highest dose activity, positive = growth rescue; 330,000 compounds, 0.19% hits; active means well fitted rising curve with a large enough effect; inconclusive means small, poorly fitted or top-dose-only effect; inactive means no such curve, though single readings can be large or run the other way; also: 0% is about no effect; nearly all actives have a fitted effect of over 55% in size; growth read by luminescence after 48 h
Marburg entry inh – inhibitors of Marburg virus binding or cell entry; 300,000 compounds, 1.8% hits; Potency, µM (titrated, usually from 37.8 µM), without a hit: at the highest dose activity change, negative = inhibition, hits mostly inhibitors; Marburg virus pseudotyped entry inhibition, cell reporter; control for the full effect not named in the record; about a third of the inactives were read at about 46 µM; active = well fitted inhibition curve with a large enough effect; inconclusive = small, poorly fitted or top-dose-only effect, or effect the other way; inactive = flat fitted curve, though single readings scatter; tested in HEK293 cells; about a fifth of its hits are not listed in these tables; also: % is scaled to controls: 0 for no effect and ±100 for the full control effect; luciferase read-out
StopGo reporter – FMDV 2A StopGo reporter, luciferase signal | 410,000 compounds, 1.2% hits | Potency, µM (series often up to 57.9 µM), for inactives: at the top dose signal change, negative = less light | AID 1159524 | human cells with a luciferase reporter of 2A StopGo recoding; control for the full effect not named in the record; active = well fitted falling curve with a large enough effect; inconclusive = small, poorly fitted or top-dose-only effect; inactive = no such curve, though single readings can be large or run the other way; tested in HEK293T cells; also: % is scaled to controls: 0 for no effect and ±100 for the full control effect; nearly all actives have a fitted effect of over 45% in size; luciferase light after 4 h
* = called active by the depositor; ? = inconclusive; nt = not tested or not shown; & = joins results of further samples; [ ] = dose if it differs, or a comment. Unless noted, calls follow the shape of the dose curve; as a rule, active = well fitted curve in the direction sought with a large enough effect; inconclusive = small, poorly fitted or top-dose-only effect, or another doubt; inactive = no such curve, though single readings can be large; an effect the other way counts as inactive or inconclusive. Potency is read from the fitted curve at half-maximal effect. The order is random (roughly 4.6% active in at least one column).

Start of the data: the first 4 records, ahead of the listing:
cpd	Structure	NS1 function inh	RE007 growth inh	Cruzain Triton	Cruzain inh noDet	Lassa entry inh	SARS PLpro yeast	Marburg entry inh	StopGo reporter
1	O=C(CN1CCN(C(=O)c2ccccc2F)CC1)Nc1ccc(Br)cc1	-2%	-5%	-12%	-10%	-28%	-4%	-27%	?
2	Cc1[nH]c(-c2ccc(F)cc2)cc1C(=O)N1CCN(c2ccccc2)CC1	-34%	19%	nt	nt	nt	-1%	nt	?
3	CC1(C)C2CCC1(C)C(Nc1ccccc1)C2 (stereo not given)	4%	4%	nt	nt	nt	0%	nt	0%
4	O=C(c1ccco1)c1coc2c1cc(O)c1ccccc12	0%	15%	nt	nt	6%	-2%	17%	47%[activator]

All compounds of this part, from the start:
cpd	Structure	NS1 function inh	RE007 growth inh	Cruzain Triton	Cruzain inh noDet	Lassa entry inh	SARS PLpro yeast	Marburg entry inh	StopGo reporter
1	O=C(CN1CCN(C(=O)c2ccccc2F)CC1)Nc1ccc(Br)cc1	-2%	-5%	-12%	-10%	-28%	-4%	-27%	?
2	Cc1[nH]c(-c2ccc(F)cc2)cc1C(=O)N1CCN(c2ccccc2)CC1	-34%	19%	nt	nt	nt	-1%	nt	?
3	CC1(C)C2CCC1(C)C(Nc1ccccc1)C2 (stereo not given)	4%	4%	nt	nt	nt	0%	nt	0%
4	O=C(c1ccco1)c1coc2c1cc(O)c1ccccc12	0%	15%	nt	nt	6%	-2%	17%	47%[activator]
5	CC1C(=O)N2CCCc3cc(NC(=O)C4CC4)cc1c32 (stereo not given)	nt	-8%	nt	nt	-3%	0%	4%	3%
6	CC(=O)Nc1cccc(NC(=O)Nc2ccc(F)cc2F)c1	nt	-23%	nt	nt	3%	3%	9%[46.1 µM]	22%
7	Cc1nnc(NC(=O)CSc2nnc(CCc3nc4ccccc4[nH]3)n2C)s1	6%	-12%	0.3%	-5%	-1%	2%	2%	-6%
8	O=C1CCC(C(=O)N2CCSCC2)CN1CCc1ccccc1 (stereo not given)	10%	6%	nt	nt	nt	2%	nt	-5%
9	Cc1ccc(N2CC(C(=O)N3CCN(c4ccccn4)CC3)CC2=O)cc1 (stereo not given)	nt	-3%	nt	nt	-6%	nt	6%[46.1 µM]	18%
10	CCNC(=O)CC1C(=O)N(c2ccc(OC)cc2)C(=O)N1Cc1ccc(OC)cc1 (stereo not given)	-15%	6%	1.2%	21%	4%	2%	5%	19%
11	CCOc1cc(C2CC(=O)Nc3c2c(=O)nc(SCc2cccc(Cl)c2)n3C)ccc1O (stereo not given)	nt	nt	-1.7%	4%	-1%[46.1 µM]	nt	2%[46.1 µM]	0%
12	O=C(CSc1nc(O)c(C2CCCCC2)c(=O)[nH]1)NCC1CCCO1 (stereo not given)	10%	15%	-2.6%	-8%	1%	-22%	22%	20%
13	Cc1cccc(N(CC(=O)NCc2ccc(F)cc2)C(=O)c2csnn2)c1C	-4%	-4%	nt	nt	nt	1%	nt	0%
14	CCOc1ccc(C(=O)NCC2CCCO2)cc1 (stereo not given)	?	3%	0.7%	6%	?	1%	?	56%[activator]
15	CCn1c(=NC(=O)CS(=O)(=O)c2ccc(C)cc2)sc2cccc(OC)c21	nt	1%	nt	nt	?	-4%	?	?
16	CCOc1ccc(C(C)=O)cc1COC(=O)c1cc([N+](=O)[O-])ccc1N1CCOCC1	nt	-19%	nt	nt	-1%	-1%	?	-21%
17	COc1cc(C(=O)NCCc2nc3ccccc3n2C)cc(OC)c1OC	-7%	9%	-0.4%	0%	1%	-5%	-1%	nt
18	CC(C)(O)C(=O)N/N=C\c1ccc(OC/C=C/c2ccccc2)cc1	-19%	2%	nt	nt	-10%[46.1 µM]	-2%	1%[46.1 µM]	8%
19	c1ccc(Nc2cccc(Nc3ccccc3)n2)cc1	-142%	?	-9.2%	-13%	36%	-34%	1%[46.1 µM]	21%
20	Cc1ccc(S(=O)(=O)N2CCC[C@H]2C(=O)NCc2ccccc2Cl)cc1	nt	-24%	nt	nt	-4%	-3%	-22%	-18%
21	O=C(CCc1c[nH]c2ccccc12)N1CCN(S(=O)(=O)c2ccc(F)cc2)CC1	nt	1%	nt	nt	?	9%	-23%[46.1 µM]	-16%
22	O=C(NCc1ccc2c(c1)OCO2)c1cc2c(s1)CSC2	7%	8%	-4.0%	-14%	-17%	3%	-17%	8%
23	CC(=O)c1ccc(N2CCN(C(=O)c3ccc4c(c3)OCO4)CC2)cc1	-5%	-4%	nt	nt	-8%	-2%	5%	-13%
24	COc1cc2c(cc1OC)CN(Cc1cc(=O)oc3c(C)c(C)ccc13)CC2	6%	-19%	-4.8%	30%	-25%	7%	?	?
25	COc1ccc(C(=O)NCCCN2CCOCC2)cc1S(=O)(=O)N1CCCc2ccccc21	nt	5%	nt	nt	?	-5%	?	35%[activator]
26	Cc1oc(-c2cccc3ccccc23)nc1CN1CCC[C@H]1CO	5%	0%	nt	nt	nt	1%	nt	4%
27	Cn1c(=O)n(-c2ccccc2)c(=O)c2c3c(sc21)COC(C)(C)C3	8.9µM*	11%	0.5%	-1%	0%	14%	-3%	-16%
28	CCc1nc(N2CCN(C(C)=O)CC2)c2c3c(sc2n1)CCCC3	-25%	6%	nt	nt	nt	5%	nt	17%
29	COc1cccc(NC(=O)CN(C)CC(=O)Nc2ccc(C)cc2Cl)c1	nt	-7%	nt	nt	-11%	1%	-3%[46.1 µM]	-6%
30	O=C(NNC(=O)C1CCCO1)c1ccc([N+](=O)[O-])cc1 (stereo not given)	-9%	-10%	nt	nt	21%	0%	4%[46.1 µM]	-18%
31	CCN(CCO)Cc1csc2ccc(Br)cc12	10%	-4%	0.5%	-1%	-12%	17%	-10%	-9%
32	COc1ccc(S(=O)(=O)N2CCC(C(=O)Nc3nnc(CCN4CCCCC4)s3)CC2)cc1	?	0%	3.4%	1%	12%[14.3 µM]	0%	-5%	-20%
33	O=Cc1ccc(-c2cccc([N+](=O)[O-])c2)o1	-70%	?	nt	nt	15%	-1%	?	-7%
34	CCN1CCCC1CNCC(O)COc1ccc(C(C)(C)C)cc1C (stereo not given)	nt	-3%	nt	nt	-21%	-1%	?	5%
35	Cc1c(C(=O)N/N=C/C(C)C)[nH]c2ccc([N+](=O)[O-])cc12	16%	-5%	-7.9%	5%	?	12%	13%[46.1 µM]	-6%
36	COCCCn1c(SCC(=O)NC2CCCC2)nnc1-c1ccccc1	-4%	5%	nt	nt	-1%	-2%	-21%[46.1 µM]	11%
37	NS(=O)(=O)c1ccc(CCNC(=O)COC(=O)CCc2c[nH]c3ccccc23)cc1	nt	1%	nt	nt	-4%	-1%	16%	-14%
38	COCCNS(=O)(=O)c1cccc2cccnc12	-1%	-3%	0.9%	-12%	nt	-4%	nt	12%
39	CCC(C)NC(=O)c1cnn(-c2cccc(F)c2)c1-n1cccc1 (stereo not given)	nt	nt	0.2%	-6%	-4%[46.1 µM]	nt	nt	-25%
40	O=C(O)C1CCc2nc(NCc3ccccc3)nc(NCc3ccccc3)c2C1 (stereo not given)	nt	12%	nt	nt	0%[46.1 µM]	nt	13%[46.1 µM]	21%
41	Cn1c(C(C#N)/C(=N\S(=O)(=O)c2cccs2)c2ccccc2)nc2ccccc21 (stereo not given)	-1%	-12%	-1.0%	-25%	-3%	-5%	-4%&-1%	nt
42	Cc1c(NC(=O)COC(=O)c2ccc(Cl)nc2)c(=O)n(-c2ccccc2)n1C	nt	0%	nt	nt	0%[46.1 µM]	0%	-1%[46.1 µM]	-13%
43	Cc1cccc(C(=O)N2CCC(c3nc4ccccc4s3)CC2)c1	-6%	-6%	nt	nt	-2%	0%	-20%	-7%
44	CCN(CC)S(=O)(=O)C1CCS(=O)(=O)C1 (stereo not given)	?	20%	0.3%	2%	-4%	4%	0%	-11%
45	COc1ccc(/C=C/C(=O)c2ccc(C(=O)/C=C/c3ccc(OC)c(OC)c3)cc2)cc1OC	10%	12%	nt	nt	nt	0%	nt	?
46	CN(C(=O)CSc1nc2ccc(NC(=O)COc3ccc(Cl)cc3)cc2s1)c1ccccc1	nt	nt	-2.3%	?	?	nt	?	?
47	Cc1cccc(C)c1NC(=O)CNC(=O)Cn1nc(C)c(C)c(C#N)c1=O	nt	5%	nt	nt	20%	-1%	1%	-14%
48	CCC(c1nnnn1C1CCCCC1)N1CCN(C2CCCC2)CC1 (stereo not given)	-7%	-1%	3.8%	2%	-13%	-12%	?	-17%
49	O=c1c2ccccc2nc(-c2ccc(Cl)cc2)n1C1CCS(=O)(=O)C1 (stereo not given)	nt	5%	nt	nt	-2%	nt	-16%	13%
50	Clc1ccc(-c2c[n+](Cc3cccc(Cl)c3)c3n2CCC3)cc1	10%	-15%	-3.6%	-7%	-1%	0%	1%	-12%

The list goes on:
cpd	Structure	NS1 function inh	RE007 growth inh	Cruzain Triton	Cruzain inh noDet	Lassa entry inh	SARS PLpro yeast	Marburg entry inh	StopGo reporter
51	Cc1ccc(S(=O)(=O)NC(=O)Nc2nnc(C)s2)cc1	4%	-2%	10%	0%	-3%	-2%	2%	-17%
52	CCOC(=O)c1sc(Nc2nc(OC)cc(OC)n2)nc1C	5%	2%	nt	nt	2%	-1%	?	0%
53	COc1ccc(N2CCN(C3CCCN(C(=O)CN4CCCC4=O)C3)CC2)cc1 (stereo not given)	-4%	2%	nt	nt	nt	6%	nt	34%[activator]
54	CCCCCCNCC1OCc2ccccc2CO1	-9%	-7%	-2.3%	-4%	0%	-30%	28%	-9%
55	O=C(O)c1[nH]c2ccccc2c1C(c1cccc(O)c1)c1c(C(=O)O)[nH]c2ccccc12	14%	-4%	nt	nt	nt	1%	nt	-13%
56	COC(=O)C1(Cc2ccc3c(c2)CCC3)Cc2ccc3c(c2C1=O)CCC3 (stereo not given)	nt	12%	nt	nt	?	nt	?	?
